Source: PubChem BioAssay
StopGo reporter: lowers the luciferase signal of an FMDV 2A StopGo reporter; hit rate 1.2% among 410,000; Potency, µM (series often up to 57.9 µM), for inactives: top-dose signal change, negative = less light; human cells with a luciferase reporter of 2A StopGo recoding; control for the full effect not named in the record; AID 1159524; active = well fitted falling curve with a large enough effect; inconclusive = small, poorly fitted or top-dose-only effect; inactive = no such curve, though single readings can be large or run the other way; tested in HEK293T cells; further: on the % scale 0 is the no-effect control and ±100 the full control effect; nearly all actives have a fitted effect of over 45% in size; luciferase light after 4 h
LASV entry inh: inhibitors of Lassa virus binding or cell entry. hit rate 1.2% among 300,000. Potency, µM (series often up to 37.9 µM), without a hit: top-dose activity change, negative = inhibition, actives largely listed as inhibitors. Lassa virus pseudotype entry inhibition, cell reporter; control for the full effect not named in the record. AID 540256; active means well fitted inhibition curve with a large enough effect; inconclusive means small, poorly fitted or top-dose-only effect, or effect the other way; inactive means flat fitted curve, though single readings scatter; tested in HEK293 cells; further: on the % scale 0 is the no-effect control and ±100 the full control effect; nearly all actives have a fitted effect of over 50% in size; luciferase read-out
RE007 growth inh: less growth of the S. pombe RE007 Vpr strain; S. pombe RE007 Vpr strain, BacTiter-Glo ATP luminescence, 24 h; control for the full effect not named in the record; Potency, µM (doses to about 92.2 µM), without a hit: top-dose activity change, negative = less growth; hit rate 0.21% among 360,000; AID 651644; active = well fitted falling curve with a large enough effect; inconclusive = small, poorly fitted or top-dose-only effect; inactive = no such curve, though single readings can be large or run the other way;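 further: on the % scale 0 is the no-effect control and ±100 the full control effect; nearly all actives have a fitted effect of over 50% in size; the assay follows cell death caused by Vpr and the record does not say whether a fall means rescue or toxicity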
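Fission yeast strain RE007, carrying one chromosomally integrated HIV-1 vpr copy, was seeded at OD 0.01 in PMG+AL medium with 23 nL pinned compound. After 24 h at 30 °C and 99% humidity, viability was read by BacTiter-Glo luminescence.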
NS1 function inh: blocks influenza NS1 protein function. AID 2326. S. cerevisiae slowed by influenza A NS1, growth recovery by OD600. Potency, µM (highest dose often 46.1 µM), without a hit: top-dose activity, positive = more growth. hit rate 0.4% among 270,000; active means well fitted rising curve with a large enough effect; inconclusive means small, poorly fitted or top-dose-only effect; inactive means no such curve, though single readings can be large or run the other way; further: nearly all actives have a fitted effect of over 50% in size
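In this qHTS, NS1 from influenza A is expressed in budding yeast, where it slows growth. Cells are switched from glucose to 2% galactose medium (pH 6.0, -URA), treated with compound, and growth recovery is read at OD600.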
SARS PLpro yeast: inhibitors of SARS-CoV papain-like protease in yeast | S. cerevisiae expressing SARS-CoV PLpro, growth rescue; control for the full effect not named in the record | Potency, µM (top dose mostly 32.9 µM), inactives show top-dose activity, positive = growth rescue | hit rate 0.19% among 330,000; active means well fitted rising curve with a large enough effect; inconclusive means small, poorly fitted or top-dose-only effect; inactive means no such curve, though single readings can be large or run the other way; further: 0% is about no effect; nearly all actives have a fitted effect of over 55% in size; growth read by luminescence after 48 h
MARV entry inh: inhibitors of Marburg virus binding or cell entry; Marburg virus pseudotyped entry inhibition, cell reporter; control for the full effect not named in the record; about a third of the inactives were read at about 46 µM; Potency, µM (highest dose often 37.8 µM), without a hit: at the top dose activity change, negative = inhibition, most hits filed as inhibitors; hit rate 1.8% among 300,000; AID 540276; active = well fitted inhibition curve with a large enough effect; inconclusive = small, poorly fitted or top-dose-only effect, or effect the other way; inactive = flat fitted curve, though single readings scatter; tested in HEK293 cells; about a fifth of its hits are not listed in these tables; further: on the % scale 0 is the no-effect control and ±100 the full control effect; luciferase read-out
Cruzain inh noDet: blocks cruzain activity in detergent-free assay | purified cruzain, Z-FR-AMC fluorescence, no detergent | hit rate 2.3% among 200,000 | P25779 | Potency, µM, for inactives: max response, negative = inhibition, hits mostly inhibitors;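 further: plate controls were enzyme without inhibitor for no effect and buffer without enzyme for full effect; nearly all actives have a fitted effect of over 40% in size; top concentration of the series not given in the record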
Target sequence (P25779 123-467 limits assumed): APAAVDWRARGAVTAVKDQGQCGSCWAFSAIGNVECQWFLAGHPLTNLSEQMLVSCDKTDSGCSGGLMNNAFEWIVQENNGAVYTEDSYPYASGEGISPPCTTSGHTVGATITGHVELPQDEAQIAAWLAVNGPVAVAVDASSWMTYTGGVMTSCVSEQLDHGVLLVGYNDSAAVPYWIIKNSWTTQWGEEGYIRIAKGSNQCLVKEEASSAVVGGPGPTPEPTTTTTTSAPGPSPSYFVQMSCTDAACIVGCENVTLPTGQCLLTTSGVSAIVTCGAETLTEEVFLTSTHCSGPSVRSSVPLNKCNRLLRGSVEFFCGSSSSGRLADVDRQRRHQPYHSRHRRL
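Purified cruzain at 1.5 nM, pre-incubated 15 min with compound at room temperature in 100 mM sodium acetate pH 5.5, 5 mM DTT, 0.00005% Triton X-100. Reaction started with 2 uM Z-FR-AMC; AMC fluorescence increase over 60 s gives rate.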
Cruzain Triton: inhibitors of Trypanosoma cruzi cruzain with detergent; P25779; purified cruzain, Z-FR-AMC fluorescence, 0.01% Triton; Potency, µM, for the others: max response, negative = inhibition, usual class: inhibitors; hit rate 0.43% among 200,000;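 further: plate controls were neutral wells for no effect and buffer without enzyme for full effect; nearly all actives have a fitted effect of over 40% in size; top concentration of the series not given in the record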
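Enzyme 1.5 nM, Z-FR-AMC 2 uM, NaOAc 100 mM pH 5.5, DTT 5 mM, Triton X-100 0.01%; 15 min RT compound preincubation; kinetic ex360/em450, 60 s delta.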
* marks the source's active call; other numbers are inactive results; ? = inconclusive; . = no result given; & = joins results of further samples; [ ] = dose if it differs, or a comment. Unless noted, the call rests on the fitted dose curve; in most records, active means well fitted curve in the direction sought with a large enough effect; inconclusive means small, poorly fitted or top-dose-only effect, or another doubt; inactive means no such curve, though single readings can be large; an effect the other way counts as inactive or inconclusive. Potency means the concentration at half of the fitted maximal effect.

SMILES	StopGo reporter	LASV entry inh	RE007 growth inh	NS1 function inh	SARS PLpro yeast	MARV entry inh	Cruzain inh noDet	Cruzain Triton
O=C(CN1C(=O)COc2ccc(S(=O)(=O)N3CCOCC3)cc21)N1CCN(c2ccc(F)cc2)CC1	-7%	0%[46.1 µM]	.	.	.	6%[46.1 µM]	23%	0.0%
CC(C)CCOc1cccc(OCC(=O)O)c1	0%	13%[46.1 µM]	10%	.	2%	?	.	.
CN(C(=O)N1CCN(c2ccccn2)CC1)c1ccccc1	-1%	-1%	2%	0%	4%	-5%	-6%	1.9%
COc1ccccc1/C=N/N1CCN(Cc2ccccc2Cl)CC1	0%	1%	4%	2%	-1%	2%	.	.
CCOC(=O)CN(C(=O)CSc1nnc(C)n1-c1ccccc1)c1cccc([N+](=O)[O-])c1	.	17%	0%	1%	1%	1%	-2%	0.0%
O=C(NCc1cccnc1)NC1CCCN1S(=O)(=O)c1ccc(Cl)cc1 (stereo not drawn)	2%	9%	15%	-3%	5%	0%	2%	2.8%
O=C(CNS(=O)(=O)c1cccc(Cl)c1)OCc1csc(-c2ccccc2)n1	-9%	4%	12%	-56%	-21%	1%	21%	-9.0%
Fc1ccccc1N1CCN(C2CCCN(Cc3cccc(C(F)(F)F)c3)C2)CC1 (stereo not drawn)	-29%	-28%[46.1 µM]	-4%	3%	1%	?	.	.
COCCSc1ccccc1C(=O)NCCCn1ccnc1	.	-20%	-1%	-3%	2%	27%	-13%	-0.5%
Cc1ccc(Nc2nc(C(=O)N3CCC(C(=O)N4CCN(C)CC4)CC3)cs2)cc1	52%[activator]	?	4%	-8%	6%	?	-16%	-2.6%
CN(C1CCCCC1)S(=O)(=O)c1ccc2c(c1)c(=O)c(C(=O)NCc1ccccc1Cl)cn2C	-21%	4%[46.1 µM]	.	.	.	1%[46.1 µM]	-7%	-0.4%
C=Cc1ccc2c(c1)N(C)C(=C)S2	-12%	?	1%	?	-2%	14%[46.1 µM]	.	.
O=C(NCCCc1nc2ccccc2n1Cc1ccccc1Cl)C1CCCCC1	0%	-15%[46.1 µM]	.	.	.	-21%[46.1 µM]	-8%	-5.7%
CCC(C)(C)C1CCC2(CC1)NC(CO)(CO)CO2 (stereo not drawn)	5%	-3%	-12%	-1%	9%	28%	7%	-0.2%
Cc1ccc2c(=O)cc(C(=O)NCCc3ccc(S(N)(=O)=O)cc3)oc2c1	?	.	2%	7%	-1%	.	.	.
Cc1cccn2c(=O)c(/C=C(\C#N)S(=O)(=O)c3ccccc3)c(Oc3ccc(Cl)cc3)nc12	-1%	?	-1%	11%	1%	-12%	?	-1.4%
CC(C)OCCCNc1ncnc2c1cnn2-c1ccccc1	-21%	?	-3%	-2%	-1%	?	0%	-3.9%
O=C(Nc1ccc(N2CCOCC2)nc1)c1ccccc1Cl	64%[activator]	14%	13%	-3%	1%	4%	.	.
O=C1c2oc3ccc(Cl)cc3c(=O)c2C(c2cccnc2)N1Cc1ccco1 (stereo not drawn)	.	.	.	5%	4%	.	-1%	-9.8%
CCCS(=O)(=O)c1c(S(=O)(=O)CCC)c2cnccn2c1C(=O)c1ccc(OC)cc1	11%	.	6%	1%	-1%	.	.	.
Cc1[nH]c2ccccc2c1-c1nc2ccccc2[nH]c1=O	32%[activator]	?	7%	8%	-5%	29%[46.1 µM]	.	.
Cc1ccccc1NC(=O)CSc1nnc(C2CC2)n1CC1CCCO1 (stereo not drawn)	11%	7%	1%	-6%	14%	-1%[46.1 µM]	.	.
COc1ccc(/C=C/C(=O)Nn2cnnc2)cc1	-8%	0%	14%	7%	9%	10%	-15%	-7.1%
C=CCOc1ccc(/C=C(\C#N)C(=O)Nc2ccccn2)cc1OC	13%	9%	0%	-2%	-2%	6%[46.1 µM]	.	.
CN1CCN(S(=O)(=O)c2ccc(NC(=O)c3ccc(Br)s3)cc2)CC1	47%[activator]	-14%	4%	2%	7%	?	-10%	-4.1%
COC(=O)C1=C(C)NC(=O)NC1c1cn(-c2ccccc2)nc1-c1cccs1 (stereo not drawn)	-20%	-18%	21%	-8%	-11%	-10%	-24%	-10%
CCC(=NCCc1c[nH]c2ccccc12)c1c(O)n(-c2ccc(C)cc2)c(=O)[nH]c1=O	-9%	1.8µM*	16%	-2%	-11%	?	-7%	-7.9%
Cc1ccc2c(c1)NCC(C(=O)NC1CCC(C)CC1)O2 (stereo not drawn)	14%	12%	-3%	?	0%	6%	6%	-0.3%
O=C(Nc1ccc(N2CCN(C(=O)c3ccc(Cl)cc3)CC2)cc1)c1cccs1	-6%	.	26%	9%	6%	.	.	.
Cc1nc(NC(=O)COC(=O)CCc2nc3ccccc3s2)c(Cl)cc1Cl	2%	10%	13%	6%	-5%	3%	-6%	-4.2%
O=[N+]([O-])c1ccc(S(=O)(=O)N2CCN(Cc3c[nH]c4ccccc34)CC2)cc1	-13%	8%	10%	2%	6%	-19%	-1%	-1.2%
CC1(C)CC(=O)C=C(Nc2ccccc2O)C1	-18%	16%	68%	0%	-6%	2%	5%	2.2%
O=C(NNc1ccc(-c2csnn2)cc1)c1ccccc1C(F)(F)F	-11%	0%	56%	-5%	0%	9%	.	.
Cc1nc(S(=O)(=O)N2CCOCC2)c(C#N)c(C)c1Cl	-5%	-11%	-3%	-76%	24%	-33%[46.1 µM]	-2%	2.9%
CC(=O)N1CCN(CC(=O)Nc2ccccc2Sc2ccc(Cl)cc2)CC1	?	5µM*	-22%	-14%	?	-14%	?	-3.9%
Fc1ccc2[nH]c3c(N4CCN(c5ccccc5)CC4)ncnc3c2c1	?	?	14%	3%	-15%	?	-16%	-14%
Cc1ccc(NC(=O)c2ccc(F)cc2)cc1S(=O)(=O)N1CCCCCC1	?	?	2%	.	1%	7.9µM*	.	.
COc1cc(CC(=O)OCC(=O)Nc2ccc(N3CCOCC3)cc2)cc(OC)c1OC	12%	?	5%	0%	2%	14%[46.1 µM]	.	.
CCC1Oc2ccc(C)cc2N(CC(=O)NCCC2=CCCCC2)C1=O (stereo not drawn)	0%	2%	5%	-17%	-1%	-24%	-10%	-5.0%
O=C(NCc1cccs1)C1CCCN(c2nc3ccccc3o2)C1 (stereo not drawn)	5%	-28%	14%	-36%	-14%	-8%	-11%	-4.1%
C=CCNc1nc(-c2ccccn2)nnc1-c1ccccc1	-10%	?	?	-171%	-34%	?	15%	2.1%
O=C(CCC(=O)N1CC2CCCN2c2ccccc21)NCc1ccc(Cl)cc1 (stereo not drawn)	-19%	2%[46.1 µM]	.	.	.	.	13%	-11%
COCC(=O)Nc1nc(-c2ccccc2)ns1	19%	-5%	-24%	-7%	-14%	19%	-8%	0.4%
CCn1c(CSc2nnc(-c3ccoc3C)n2C)nc2cc(S(=O)(=O)N(C)C)ccc21	13%	6%	1%	6%	-8%	-24%&-24%[46.1 µM]	-6%	1.0%
Cn1nnnc1SCCCNCc1ccccc1OCc1ccccc1Cl	-29%	-19%[46.1 µM]	.	.	.	?	-11%	-7.3%
O=C(NC1CC1)c1cccc(S(=O)(=O)Nc2ccccc2F)c1	25%	-24%	0%	.	.	?	.	.
CCOC(=O)c1ccccc1NC(=O)CSc1nc(=O)[nH]c2c1CCCC2	-10%	24%[46.1 µM]	.	.	.	.	1%	0.2%
COc1cccc(NC(=O)NC2CCCc3ccccc32)c1 (stereo not drawn)	6%	1%[46.1 µM]	11%	-13%	-2%	?	.	.
CCOC(=O)C1CCCN(S(=O)(=O)c2ccc3c(c2)N(C(C)=O)CCO3)C1 (stereo not drawn)	-1%	.	-14%	-7%	6%	.	.	.
C/C(=N\NC(=O)c1nn(C)cc1Cl)c1ccncc1	16%	8%	-1%	21%	27%	8%	-4%	-3.3%
CCOC(=O)c1sc(=NC(=O)c2cc(OC)c(OC)c(OC)c2)n(C)c1C	.	-15%	1%	?	2%	5%	17%	-6.9%
CC(=NNC(=S)N1CCN(c2ccccn2)CC1)c1ccccn1	-9%	-9%	-16%	.	.	?	.	.
CCN(CC)c1ccc2nc3c(=O)n(C)c(=O)n(C)c3nc2c1	-12%	-20%[46.1 µM]	.	.	.	?	-2%	-2.4%
C=CCn1c(SCC(=O)NNC(=O)Nc2cccc(Cl)c2)nnc1-c1ccccc1	-19%	.	22%	-8%	2%	.	.	.
O=C(c1cccs1)n1nc(-c2ccco2)nc1SCc1ccccc1	39%[activator]	-11%	-7%	-84%	-2%	-1%	-24%	5.9%
COc1cc(/C=N/N(CCO)C2=NS(=O)(=O)c3ccccc32)cc(OC)c1OC	-25%	-17%[46.1 µM]	4%	2%	4%	?	.	.
COc1ccc(-c2cc(C(F)(F)F)n3nc(C(=O)N4CCC5(CC4)OCCO5)cc3n2)cc1OC	11%	-9%	-18%	?	.	-3%&16%	?	-4.2%
CCCCCOC(=O)Cn1c(N2CCOCC2)nc2c1c(=O)[nH]c(=O)n2C	-21%	-6%	-12%	2%	-1%	7%	1%	2.8%
CC(CN1CCC(O)CC1)c1ccccc1 (stereo not drawn)	-15%	-16%	0%	-2%	2%	12%	.	.
CCC(=O)N1CCc2cc(S(=O)(=O)NC(Cc3ccccc3)C(=O)Nc3cccc(OC)c3)ccc21 (stereo not drawn)	-4%	-14%[46.1 µM]	.	.	.	-9%[46.1 µM]	2%	-0.8%
(further entries)
SMILES	StopGo reporter	LASV entry inh	RE007 growth inh	NS1 function inh	SARS PLpro yeast	MARV entry inh	Cruzain inh noDet	Cruzain Triton
O=C(c1ccccc1Cl)N1N=C(c2ccc(Br)cc2)CC1c1nc2ccccc2[nH]1 (stereo not drawn)	-2%	?	-19%	-81%	-30%	?	?	2.2%
COc1cc(O)c(C(CCN2CCCC2)c2ccc(N(C)C)cc2)c(OC)c1 (stereo not drawn)	-18%	.	-9%	-16%	1%	.	.	.
COC(=O)c1sc(-c2ccc(Cl)cc2)cc1NC(=O)CSCC(=O)O	-3%	.	-7%	7%	-1%	.	.	.
NC(=O)c1ccc(NC(=O)COC(=O)c2cc(S(=O)(=O)N3CCOCC3)ccc2N2CCCCC2)cc1	-18%	.	7%	-9%	-1%	.	.	.

Hits appear at their usual frequency, and some 4.7% of all compounds hit somewhere here.
